AF4-AF9 inh = MLL-AF4/AF9 protein interaction inhibition; P42568; actives 0.47% (n = 350,000); inhibition, % at 10 µM; AlphaScreen, biotin-AF4 peptide binding to FLAG-AF9;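 active = every replicate reaching a set inhibition limit, whatever the replicate mean, cut at about 25% in these data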;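 also: 0% = plate neutral control median and 100% = total signal loss; the record names both 10 and 1 µM as test concentration; the first replicate is given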
Target sequence (P42568 whole entry, looked up): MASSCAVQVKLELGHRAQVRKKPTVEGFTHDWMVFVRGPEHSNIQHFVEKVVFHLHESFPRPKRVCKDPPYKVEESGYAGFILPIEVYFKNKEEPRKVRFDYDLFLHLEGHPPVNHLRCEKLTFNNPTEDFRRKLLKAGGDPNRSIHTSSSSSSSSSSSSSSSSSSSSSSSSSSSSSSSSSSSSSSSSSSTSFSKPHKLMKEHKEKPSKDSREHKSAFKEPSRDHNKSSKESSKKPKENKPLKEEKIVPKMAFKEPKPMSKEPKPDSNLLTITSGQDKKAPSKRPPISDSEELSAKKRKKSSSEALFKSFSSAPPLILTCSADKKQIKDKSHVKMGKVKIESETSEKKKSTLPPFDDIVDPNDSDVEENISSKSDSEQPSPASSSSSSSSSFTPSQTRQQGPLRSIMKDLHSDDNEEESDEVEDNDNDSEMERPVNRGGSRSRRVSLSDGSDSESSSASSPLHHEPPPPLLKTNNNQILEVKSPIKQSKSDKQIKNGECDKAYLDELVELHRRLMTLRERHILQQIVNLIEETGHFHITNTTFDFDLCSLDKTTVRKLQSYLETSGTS
Starred values were filed as active, the others as inactive; & = joins results of further samples. Some of the compounds tested; rates above refer to the full screens.

no. | SMILES | AF4-AF9 inh
1 | C[C@H]1CN([C@@H](C)CO)C(=O)c2cc(NC(=O)Nc3ccc(C(F)(F)F)cc3)ccc2O[C@@H]1CN(C)S(=O)(=O)c1cn(C)cn1 | 0.9
2 | Cc1noc(C)c1NC(=O)Nc1ccc2c(c1)C(=O)N([C@@H](C)CO)C[C@H](C)[C@H](CN(C)Cc1ccccc1)OCCCC[C@@H](C)O2 | 1.1
3 | Cc1ccccc1S(=O)(=O)N1CC(=O)N2[C@@H](CO)[C@H](c3ccc(C#CCC(C)C)cc3)[C@@H]2C1 | -4.1
4 | N#Cc1ccc(-c2ccc([C@H]3[C@H](CO)N4C(=O)CN(C(=O)Cc5ccccc5)C[C@@H]34)cc2)cc1 | -0.3
5 | CCC(=O)N1CC2(C1)CN(Cc1cccc(Cl)c1)[C@@H](CO)c1c2c2ccc(OC)cc2n1C | -0.5
6 | O=C(Nc1ccccc1)N1CC(=O)N2[C@H](CO)[C@@H](c3ccc(C#CC4CCCCC4)cc3)[C@H]2C1 | 6.4
7 | O=C(Nc1ccc2c(c1)[C@@H]1C[C@@H](CC(=O)N3CCCCC3)O[C@H](CO)[C@@H]1O2)c1ccc2c(c1)OCO2 | -2.2
8 | O=C(c1cccnc1)N1CC(=O)N2[C@H](CO)[C@H](c3ccc(-c4ccc(F)cc4)cc3)[C@H]2C1 | -0.6
9 | COc1ccccc1CN1[C@@H]2c3cccc(=O)n3C[C@H]1[C@H](CO)[C@H]2C(=O)N1CCc2ccccc2C1 | -2.1
10 | COc1ccc2c3c(n(C)c2c1)[C@H](CO)N(C(=O)c1ccncc1)CC31CN(C(C)=O)C1 | -5.6
11 | COC(=O)[C@@H]1[C@@H](CO)[C@@H]2Cn3c(cccc3=O)[C@@H]2N1C(=O)C1CCCC1 | -2.7
12 | CNC[C@@H]1Oc2ccc(NS(=O)(=O)c3cn(C)cn3)cc2C(=O)N([C@H](C)CO)C[C@@H]1C | -15.3
13 | COc1ccccc1C#Cc1ccc([C@H]2[C@H](C#N)N(C(=O)C3CCCC3)[C@H]2CO)cc1 | -1.3
14 | O=C(NC1CCCC1)N1CC(=O)N2[C@H](C1)[C@@H](c1ccc(-c3cccc(F)c3)cc1)[C@@H]2CO | 0.7
15 | C[C@@H]1CN([C@@H](C)CO)C(=O)c2cc(NC(=O)Cc3ccccc3)ccc2O[C@@H]1CN(C)C(=O)Nc1ccc(C(F)(F)F)cc1 | 3.3
16 | C[C@@H]1CCCCO[C@H](CN(C)S(=O)(=O)c2ccc(F)cc2)[C@H](C)CN([C@@H](C)CO)C(=O)c2cc(NC(=O)Nc3ccc4c(c3)OCO4)ccc2O1 | 1.4
17 | CN1CCN(C(=O)[C@@H]2[C@@H](CO)[C@@H]3Cn4c(ccc(-c5ccncc5)c4=O)[C@@H]3N2CC2CC2)CC1 | -6.7
18 | COc1ccccc1-c1ccc(C2[C@H]3CNC[C@@H]2N3Cc2cc(-c3ccccc3)on2)cc1 (some centres not stated) | 0.5
19 | C=CCOC(=O)[C@H]1[C@@H]2C(=O)O[C@@H](c3ccccc3)[C@@H](c3ccccc3)N2[C@@H](c2ccc(OCCOC(=O)[C@@H]3C[C@@H]4C(=O)NCC(=O)N4[C@@H]3c3cccc(OCCO)c3)cc2)[C@]12C(=O)Nc1ccc(I)cc12 | -1.5
20 | CCCC#Cc1ccc([C@H]2[C@@H](CO)N(C(C)=O)[C@H]2CNC(=O)C2CC2)cc1 | -2.5
21 | CO[C@@H]1CN(C)C(=O)c2cc(NS(=O)(=O)c3ccc(C)cc3)ccc2OC[C@H](C)N(Cc2nccs2)C[C@@H]1C | 1.8
22 | CN1[C@H](C(=O)NCCc2ccccc2)[C@@H](CO)[C@@H]2Cn3c(ccc(-c4ccncc4)c3=O)[C@@H]21 | 0.8
23 | Cc1ccc(-c2ccc([C@@H]3[C@H](CO)N4CCCCN(C(=O)Nc5ccccc5)C[C@@H]34)cc2)cc1 | 1.6
24 | CN1CCN(C(=O)C[C@H]2CC[C@@H]3[C@H](COC[C@@H](O)CN3CC3CCCC3)O2)CC1 | -1.5
25 | Cc1ccccc1-c1ccc(C2[C@H]3CNC[C@@H]2N3C(=O)Nc2ccc(C(F)(F)F)cc2)cc1 (some centres not stated) | 2.9&-1.1
26 | O=C(Nc1nccs1)[C@H]1[C@H](CO)[C@H]2Cn3c(ccc(-c4ccncc4)c3=O)[C@H]2N1CC1CCCC1 | 0.1
27 | N#C[C@H]1[C@@H](c2ccccc2C2=CCCC2)[C@H](CO)N1C(=O)c1ccccn1 | 0.1
28 | CCS(=O)(=O)Nc1ccc2c(c1)C(=O)N(C)C[C@H](OC)[C@@H](C)CN(C(=O)C1CCC1)[C@@H](C)CO2 | -3.4
29 | O=C(NCc1ccc(F)cc1)[C@H]1[C@H](CO)[C@H]2Cn3c(cccc3=O)[C@@H]1N2C(=O)C1CC1 | 0.5
30 | C[C@@H]1CN([C@@H](C)CO)C(=O)c2cc(NC(=O)CCCN(C)C)ccc2O[C@@H](C)CCCCO[C@@H]1CN(C)Cc1ccncc1 | -5.8
31 | O=C(C[C@H]1CC[C@@H]2[C@H](COC[C@@H](O)CN2C(=O)c2ccccc2F)O1)NCc1ccccc1 | 0.6
32 | O=C(NCC1CC1)[C@@H]1[C@@H](CO)[C@@H]2Cn3c(ccc(C4=CCCCC4)c3=O)[C@H]1N2 | -1.2
33 | CO[C@@H]1CN(C)C(=O)c2ccc(NC(=O)c3cnccn3)cc2OC[C@@H](C)N(C)C[C@@H]1C | -5.0
34 | CCS(=O)(=O)N1CC(=O)N2[C@@H](CO)[C@H](c3ccc(C#CC4CCCCC4)cc3)[C@@H]2C1 | 5.3
35 | O=C(C[C@H]1CC[C@@H]2[C@H](COC[C@H](O)CN2CCc2ccccc2)O1)NCc1ccc(F)cc1 | -0.4
36 | CS(=O)(=O)N1[C@@H]2c3ccc(-c4ccccc4F)c(=O)n3C[C@@H]2[C@@H](CO)[C@@H]1C(=O)NCC1CC1 | -5.4
37 | COc1ccc(NC(=O)Nc2ccc3c(c2)C(=O)N([C@@H](C)CO)C[C@@H](C)[C@H](CN(C)CC2CCCCC2)OCCCC[C@@H](C)O3)cc1 | -1.5
38 | CCCN(C)C[C@H]1OCCCC[C@H](C)Oc2ccc(NC(=O)Cc3ccccc3)cc2C(=O)N([C@@H](C)CO)C[C@H]1C | 0.7
39 | CC(C)(C)[S@@](=O)N1Cc2cc(C(=O)N3CCCCC3)nc(-c3cccc(Br)c3)c2[C@H]1CCO | 3.4
40 | COc1ccccc1S(=O)(=O)N[C@H]1CC[C@H](CCn2cc(C3CCCC3)nn2)O[C@H]1CO | 0.6
41 | C/C=C/c1ccc([C@H]2[C@@H](CO)N(C(=O)CN(C)C)[C@H]2CN(C)C(C)=O)cc1 | -2.7
42 | O=C(C[C@H]1CC[C@@H]2[C@H](COC[C@H](O)CN2C(=O)c2ccccc2)O1)Nc1ccc(-c2ccccc2)cc1 | 2.0
43 | OC[C@@H]1Nc2ccc(C#Cc3ccc(F)cc3)cc2[C@H]2NCC[C@@H]12 | 21.7
44 | O=C(Nc1ccccc1F)N1CC(=O)N2[C@@H](CO)[C@H](c3ccc(C#Cc4ccc(F)cc4)cc3)[C@@H]2C1 | -1.8
45 | CCC(=O)N1[C@@H](CO)[C@H](c2ccccc2)C12CN(C(=O)c1cnccn1)C2 | -5.3
46 | CO[C@@H]1CN(C)C(=O)c2cc(NC(=O)CC(F)(F)F)ccc2OC[C@H](C)NC[C@@H]1C | 8.4
47 | O=C(c1ccccn1)N1CC(=O)N2[C@@H](CO)[C@H](c3ccc(C#CCc4ccccc4)cc3)[C@@H]2C1 | -2.7
48 | COc1cccc(-c2ccc([C@@H]3[C@H]4CN(C(=O)c5ccncc5)CC(=O)N4[C@H]3CO)cc2)c1 | -0.1

5 entries from above, sorted by molecular weight, smallest number first:
no. | SMILES | AF4-AF9 inh
43 | OC[C@@H]1Nc2ccc(C#Cc3ccc(F)cc3)cc2[C@H]2NCC[C@@H]12 | 21.7
45 | CCC(=O)N1[C@@H](CO)[C@H](c2ccccc2)C12CN(C(=O)c1cnccn1)C2 | -5.3
40 | COc1ccccc1S(=O)(=O)N[C@H]1CC[C@H](CCn2cc(C3CCCC3)nn2)O[C@H]1CO | 0.6
38 | CCCN(C)C[C@H]1OCCCC[C@H](C)Oc2ccc(NC(=O)Cc3ccccc3)cc2C(=O)N([C@@H](C)CO)C[C@H]1C | 0.7
37 | COc1ccc(NC(=O)Nc2ccc3c(c2)C(=O)N([C@@H](C)CO)C[C@@H](C)[C@H](CN(C)CC2CCCCC2)OCCCC[C@@H](C)O3)cc1 | -1.5

Going on with the list:
no. | SMILES | AF4-AF9 inh
49 | CC(C)NC(=O)N(C)C[C@H]1Oc2c(NC(=O)Nc3ccc(C(F)(F)F)cc3)cccc2C(=O)N([C@@H](C)CO)C[C@H]1C | 4.0
50 | CN1C(=O)c2cc(NC(=O)Nc3cccc(Cl)c3)ccc2OC[C@H]2O[C@@H](CC(=O)O)CC[C@H]21 | -0.1
51 | CO[C@@H]1CN(C)C(=O)c2cc(NC(=O)NC3CCCCC3)ccc2OC[C@H](C)N(C(C)=O)C[C@H]1C | -1.6
52 | CCC(=O)NC[C@@H]1[C@@H](c2ccc(-c3ccc(OC)cc3)cc2)[C@@H](CO)N1C(C)=O | -2.0
53 | CCC(=O)N1CC(=O)N2[C@H](CO)[C@@H](c3ccc(C#CCc4ccccc4)cc3)[C@H]2C1 | -0.4
54 | CCC(=O)N1C[C@H](C)[C@H](OC)CN(C)C(=O)c2ccc(NC(=O)c3ccccc3)cc2OC[C@H]1C | -2.7
55 | COc1ccc(S(=O)(=O)N2CC[C@H]3[C@@H](CO)N(C)c4ccc(C#Cc5ccccc5OC)cc4[C@H]32)cc1 | 0.4
56 | O=C(c1ccncc1)N1CC2(C1)[C@@H](c1ccccc1)[C@@H](CO)N2C(=O)c1ccncc1 | -2.7
57 | COc1cccc(C(=O)Nc2ccc3c(c2)OC[C@@H](C)N(C)C[C@H](C)[C@@H](OC)CN(C)C3=O)c1 | -0.9
58 | COCC#Cc1ccc([C@@H]2[C@@H](C#N)N(C(=O)NC3CCCCC3)[C@@H]2CO)cc1 | 3.2
59 | CCCC(=O)N1CC2(CN(C)C2)c2c(n(C)c3cc(OC)ccc23)[C@H]1CO | 0.8
60 | N#Cc1ccc(-c2ccc([C@@H]3[C@H](CO)N4C(=O)CN(C(=O)C5CC5)C[C@@H]34)cc2)cc1 | -4.3
61 | CO[C@H]1CN(C)C(=O)c2cc(NC(=O)Cc3ccccc3)ccc2OC[C@H](C)N(CC2CC2)C[C@H]1C | -1.9
62 | CCCN(C)C[C@@H]1Oc2ncc(-c3ccccc3OC)cc2C(=O)N([C@@H](C)CO)C[C@H]1C | 1.0
63 | COc1ccc(NC(=O)N2CC(=O)N3[C@H](CO)[C@H](c4ccc(C#CCC5CCCC5)cc4)[C@@H]3C2)cc1 | 2.0
64 | C[C@@H]1CCCCO[C@H](CN(C)S(=O)(=O)c2ccc(F)cc2)[C@@H](C)CN([C@@H](C)CO)C(=O)c2cc(NC(=O)C3CCCCC3)ccc2O1 | 2.4
65 | O=C(Nc1cccc(F)c1)N1CC(=O)N2[C@H](C1)[C@H](c1ccc(C#Cc3cccnc3)cc1)[C@@H]2CO | -1.4
66 | C[C@@H](NC(=O)[C@@H]1[C@@H](CO)[C@@H]2Cn3c(ccc(C4=CCCC4)c3=O)[C@@H]2N1C)c1ccccc1 | 1.7
67 | COc1ccc2c3c([nH]c2c1)[C@@H](CO)N(S(=O)(=O)c1cn(C)cn1)CC31CCN(CC2CCCCC2)CC1 | 12.7
68 | COc1ccccc1-c1ccc2c(c1)[C@H]1[C@H](CCN1C(=O)C1CCC1)[C@H](CO)N2 | 13.4
69 | Cc1ccc(-c2ccc([C@@H]3[C@H]4CN(C(=O)Nc5cccc(F)c5)CC(=O)N4[C@H]3CO)cc2)cc1 | -3.7
70 | C[C@@H]1CN([C@@H](C)CO)C(=O)c2cc(NS(=O)(=O)c3cccs3)ccc2O[C@@H]1CN(C)Cc1ccccc1 | -0.7
71 | COc1ccccc1C(=O)Nc1ccc2c(c1)OC[C@H](C)NC[C@@H](C)[C@H](OC)CN(C)C2=O | -0.3
72 | O=C(C[C@@H]1CC[C@H](NC(=O)Nc2cc(F)ccc2F)[C@H](CO)O1)Nc1ccc(-c2ccccc2)cc1 | -6.1
73 | CC(C)(C)[S@](=O)N1Cc2cc(C(=O)O)nc(-c3cccc(-c4cccc(F)c4)c3)c2[C@@H]1CCO | -3.5
74 | COc1ccc2c3c(n(C)c2c1)[C@H](CO)NCC31CN(C(C)=O)C1 | -1.1
75 | C[C@H](CO)N1C[C@H](C)[C@@H](CN(C)S(C)(=O)=O)Oc2c(cccc2N(C)C)C1=O | -4.7
76 | COCC(=O)N1[C@H](CO)[C@@H]2c3ccccc3N(C(=O)NC(C)C)C[C@@H]21 | -2.8
77 | COc1ccc(-c2ccc3n(c2=O)C[C@@H]2N[C@H]3[C@H](C(=O)N3CCCCC3)[C@H]2CO)cc1 | -1.2
78 | COc1ccccc1-c1ccc(C2[C@H]3CNC[C@@H]2N3S(=O)(=O)c2ccccc2)cc1 (some centres not stated) | -3.3&-20.2
79 | Cc1ccc(-c2ccc(C3[C@H]4CNC[C@@H]3N4C(=O)Nc3ccc(F)cc3)cc2)cc1 (some centres not stated) | 6.8&1.8
80 | COc1cccc(C#Cc2ccc([C@@H]3[C@H](CO)N4C(=O)CN(C(=O)C5CC5)C[C@@H]34)cc2)c1 | -2.3
81 | C[C@@H]1CN([C@@H](C)CO)C(=O)c2cc(NC(=O)Cc3ccccc3)ccc2O[C@@H](C)CCCCO[C@H]1CN(C)CC1CCCCC1 | -1.2
82 | COc1ccc(C#Cc2ccc([C@@H]3[C@H]4CN(C(C)=O)CC(=O)N4[C@H]3CO)cc2)cc1 | -0.6
83 | CCCNC(=O)N1CC2(CN(C(=O)Cc3cccnc3)C2)c2c([nH]c3cc(OC)ccc23)[C@@H]1CO | -4.0
84 | COc1ccc(C#Cc2ccc3c(c2)O[C@H](CN(C)C(=O)CN2CCOCC2)[C@@H](C)CN([C@H](C)CO)S3(=O)=O)cc1 | -2.3

Reformatted field by field: entries from further up
82. COc1ccc(C#Cc2ccc([C@@H]3[C@H]4CN(C(C)=O)CC(=O)N4[C@H]3CO)cc2)cc1
  AF4-AF9 inh = -0.6

83. CCCNC(=O)N1CC2(CN(C(=O)Cc3cccnc3)C2)c2c([nH]c3cc(OC)ccc23)[C@@H]1CO
  AF4-AF9 inh = -4.0

Screens (PubChem BioAssay)
